Bioassay records from PubChem.
V. cholerae motility – Vibrio cholerae motility inhibitors, OD read-out (AID 588778) | Vibrio cholerae motility, OD read-out; higher % means a stronger effect; test concentration not given here; primary cut-off and reference of the scale not given here; strong numbers were not always called active | inhibition, %; hits with a dose series show IC50 in µg/mL | 10,000 tested, under 10 active; in the data active = confirmed in a dose series
V. cholerae motility viability – also measured in V. cholerae motility; calls as there; inhibition, %; measured here: bacterial viability at 10 ug/mL;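 higher means fewer living bacteria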
Starred values were filed as active, the others as inactive.

Compound,V. cholerae motility,V. cholerae motility viability
COc1ccc2oc(=O)c(C(=O)Nc3c(C)n(C)n(-c4ccccc4)c3=O)cc2c1,-6%,-5
O=C(NC1(C(F)(F)F)NC(=O)N(c2ccc(F)cc2)C1=O)c1ccco1 (centres undefined),4%,-2
CS(=O)(=O)NCc1ccc(C(=O)NC2CCCCC2)cc1,15%,21
O=C(c1cccs1)N1CCN(Cc2ccccc2C(F)(F)F)CC1,-10%,-13
CC(CC(=O)NCc1ccccc1)C1CCCO1 (centres undefined),-1%,-9
N#CCC1CN2CCC1C(c1ccccc1)C2 (centres undefined),-5%,-5
CCOc1ccc2nc(Nc3nc(C)c(Cc4cccc5ccccc45)c(=O)[nH]3)nc(C)c2c1,1%,9
O=C(Nc1ccccc1C1CC1(Cl)Cl)c1cccs1 (centres undefined),-9%,-2

Copied from the list:
V. cholerae motility viability, O=C(c1cccs1)N1CCN(Cc2ccccc2C(F)(F)F)CC1 : -13
V. cholerae motility, CCOc1ccc2nc(Nc3nc(C)c(Cc4cccc5ccccc45)c(=O)[nH]3)nc(C)c2c1 : 1%
V. cholerae motility viability, CC(CC(=O)NCc1ccccc1)C1CCCO1 (centres undefined) : -9
V. cholerae motility, CS(=O)(=O)NCc1ccc(C(=O)NC2CCCCC2)cc1 : 15%
V. cholerae motility viability, N#CCC1CN2CCC1C(c1ccccc1)C2 (centres undefined) : -5

Going on with the list:
Compound,V. cholerae motility,V. cholerae motility viability
COc1ccc2c(c1)OCC1=C2CCC2(C)C(=O)CC=C12 (centres undefined),7%,3
CCOc1ccccc1NC(=O)NS(=O)(=O)c1ccc(C)cc1,17%,3
Cc1nc2ccc(NC(=O)c3cc(F)c(F)cc3Cl)cc2s1,11%,26
C=CCN(CC=C)C(=O)c1ccccc1F,-7%,-4
CCOCCCNCc1sccc1C,9%,0
CC(=O)NCCc1nc2cc([N+](=O)[O-])ccc2n1C,-9%,-10
O=C(CCNc1ccc(Cc2ccncc2)cc1)c1ccc(Cl)cc1,-8%,-2
O=Cc1ccc(-c2ccc(Cl)c(C(F)(F)F)c2)o1,8%,1
Nc1nnc(SCC(=O)Nc2nccs2)n1-c1ccccc1,2%,-2
COc1cc(C(=O)NC(=S)Nc2ccccc2N2CCCC2)ccc1OCc1ccc(Cl)cc1,4%,2
COc1cccc(-c2ccc3c(N)c(C(=O)Nc4nnc(SCC(C)C)s4)sc3n2)c1,9%,3
COc1ccc(-c2cc(C(=O)N/N=C/C=C/c3ccccc3OC)[nH]n2)cc1,-13%,-12
O=S(=O)(NC(=S)Nc1ccccc1)c1ccc(F)cc1,-1%,-3
CC1=CC(C)(C)N2C(=O)C3(Nc4ccccc4S3)c3cc(C)cc1c32 (centres undefined),-12%,-8
NC(=O)c1ccccc1NC(=O)CSc1nc(N)cc(=O)[nH]1,22%,7
O=C(CSc1nc2ccccc2[nH]1)N1c2ccccc2Sc2ccccc21,4%,-1
O=C(O)c1ccc(Nc2c([N+](=O)[O-])ccc3nonc23)cc1,8%,2
O=C(O)CCSc1nnc(SCCC(=O)O)s1,5%,1
Cc1oc(-c2cc(Cl)cc(Cl)c2)cc1C(=O)Nc1ccc(S(N)(=O)=O)cc1,-6%,-4
O=C(Cc1cccs1)Nc1cccc(-c2nnc(-c3ccco3)o2)c1,20%,-2
O=c1cc(C(F)(F)C(F)F)oc2ccc(Cl)cc12,10%,0
CCCn1nnnc1NC(=O)c1cccs1,9%,20
COc1ccc(NC(=O)NCc2ccccc2F)cc1OC,-6%,-4
Cc1cc(C)n2[nH]c(=O)c(Br)c2n1,-3%,-2
COc1ccc(C2CC(C(F)(F)F)n3ncc(C(=O)Nc4ccccc4SC)c3N2)cc1OC (centres undefined),4%,-2
CN1CCN(c2ccc(/C=C(/C#N)c3nc4ccccc4[nH]3)o2)CC1,-4%,1
O=C(Cc1cccs1)Nc1nnc(SCc2ccccc2)s1,-4%,-10
Cc1nn(-c2ccccc2)c(C)c1NC(=O)COc1ccc2ccccc2c1,9%,0
O=C(O)c1cccc(NCc2ccncc2)c1,38%,15
O=C(Nc1ccc(C(F)(F)F)cc1Br)c1ccco1,1%,4
COc1ccccc1Oc1ccc(NC(=S)NC2CCCCC2)cn1,9%,5
O=S(=O)(O)c1cccc2cccnc12,-14%,-15

Next part (3 carried over from the part before).
Compound,V. cholerae motility,V. cholerae motility viability
O=C(Nc1ccc(C(F)(F)F)cc1Br)c1ccco1,1%,4
COc1ccccc1Oc1ccc(NC(=S)NC2CCCCC2)cn1,9%,5
O=S(=O)(O)c1cccc2cccnc12,-14%,-15
Fc1ccc(NC(=S)NCCc2ccccc2)c(F)c1F,31%,8
CCOC(=O)CSc1cc(C)nc2ccc(C)cc12,5%,37
Cn1c(CSc2ccccc2)nc2ccccc21,18%,3
Cc1ccc(-c2nc(Nc3ccccc3)n[nH]2)cc1,-9%,-12
COc1cc2nc(-c3cccs3)oc(=O)c2cc1OC,5%,31
CCc1cccc(CC)c1NC(=O)CCSCCC(=O)Nc1c(CC)cccc1CC,-3%,-5
O=C(Nc1cnn(C23CC4CC(CC(C4)C2)C3)c1)c1cnn2cccnc12,-10%,-9
CS(=O)(=O)N1CCN(C(=S)NCc2ccco2)CC1,0%,-1
Cc1ccc2nc(N3C(=O)CNC3=S)sc2c1,60%,4
Cc1[nH]c(=O)[nH]c(=O)c1NC(=O)c1ccco1,9%,10
Cc1nn(C(=O)c2cccs2)c(C)c1Br,-2%,-1
N#Cc1ccccc1S(=O)(=O)Nc1cc(C(F)(F)F)ccc1Cl,0%,-3
CCOC(=O)N1CCN(c2nc(-c3cccs3)cc(C(F)(F)F)n2)CC1,2%,-7
Cc1cc(/C=C(\C#N)C(N)=S)c(C)c(Cn2ccc(C(F)(F)F)n2)c1,-3%,2
C=CCc1cccc2cc(NC(C)=O)c(=O)oc12,9%,-4
O=C(CC1Sc2ccc(C(F)(F)F)cc2NC1=O)Nc1cc(Cl)ccc1Cl (centres undefined),11%,-2
CC(=O)c1ccc(N2Cc3ccccc3C2)cc1,-2%,-1
FC(F)(F)c1cc(-c2ccccc2)n2c(n1)nc1ccccc12,-5%,-1
O=C(CSc1nc(N2CCOCC2)nc(N2CCOCC2)n1)NC1CCCCC1,11%,21
COc1ccc(NC(=O)C2=C(C)Nc3ncnn3C2c2ccccc2[N+](=O)[O-])cc1 (centres undefined),-10%,-7
COc1ccc(CCNC(=O)C(=O)Nc2ccc([N+](=O)[O-])cc2)cc1,3%,-2
O=C(Nc1nnc(CSCc2cccc(Br)c2)s1)c1ccc([N+](=O)[O-])cc1,9%,-3
O=C(Oc1c(-c2ccco2)oc2ccccc2c1=O)c1cccs1,6%,0
COc1ccccc1OCc1ccc(C(=O)n2nc(C)c(Cl)c2C)o1,9%,15
CC1=CC(C)(C)N(C(=O)CSc2ncn[nH]2)c2ccccc21,-13%,-14
CCCCOc1ccc(C(=O)CCNC(C(=O)O)C(C)CC)cc1 (centres undefined),1%,-1
CC(=O)c1cccc(NS(=O)(=O)c2c(Cl)cccc2Cl)c1,16%,3
O=[N+]([O-])c1cc(Cl)cc(C2=NCCN2)c1,18%,6
O=C(O)CCSc1nc2ccccc2[nH]1,-8%,-5
Cc1cccc(OC(=O)NCCOC(=O)Nc2cccc3ccccc23)c1,20%,4
COCc1cc(CN2CCCCC2)c(O)c2ncccc12,34%,5
O=c1c2ccccc2nc(SCc2nnc(-c3ccccc3)o2)n1CCc1ccccc1,3%,29

The results go on.
SMILES | V. cholerae motility | V. cholerae motility viability
CC1Cc2ccccc2N1S(=O)(=O)c1cccs1 (centres undefined) | 5% | 2
O=S(=O)(/C=C/c1ccccc1)N1CCN(c2cccc(C(F)(F)F)c2)CC1 | -4% | -2
COc1ccccc1-c1cc(C(F)(F)F)nc(S(=O)(=O)CCCC(=O)N2CCOCC2)n1 | -10% | -5
O=C(NN(c1ccccc1)c1ccccc1)C1CC2CCCC(C1)C2=O (centres undefined) | -19% | -5
CCOC(=O)C1CCN(C(=O)N(C)C)CC1 | -15% | -10
COc1ccc(C(=O)/C=C/c2ccc(-c3ccc(F)cc3)o2)cc1 | -9% | -4
Fc1ccccc1CNC(=S)Nc1cccc(C(F)(F)F)c1 | 7% | -13
O=C(CSc1nnnn1-c1ccccc1)C12CC3CC(CC(C3)C1)C2 | -23% | -14
O=C(N1CCOCC1)N1CCN(CC(O)COc2ccc3ccccc3c2)CC1 (centres undefined) | 8% | -2
c1ccc(-c2nc(N3CCCCC3)cc(-n3cccn3)n2)cc1 | -15% | -8
CC(C)NC(C)C(O)c1ccc2c(c1)CCCC2 (centres undefined) | -16% | -3
O=C(NCc1ccco1)c1sc2cccc(F)c2c1Cl | 10% | 19
O=C(NCc1ccc2c(c1)OCO2)N1c2ccccc2Sc2ccccc21 | 20% | 5
Cc1ccc(NC(=O)CCC(=O)N2CC(=O)NC(=O)C2)cc1 | -5% | -2
CC(C)C(NCCC(O)c1ccc(Br)cc1)C(=O)O (centres undefined) | -5% | -12
O=C(COC(=O)C(O)c1ccccc1)c1ccc2c(c1)OCCO2 (centres undefined) | -4% | -8
COc1cc(NC(=O)c2c(F)c(F)c(F)c(F)c2F)ccc1-c1cc2ccccc2oc1=O | 33% | 7
O=C(C(c1ccccc1)N1C(=O)c2ccccc2C1=O)N1c2ccccc2CCc2ccccc21 (centres undefined) | -4% | 22
CCOC(=O)N1CCN(c2cc3nccnc3cc2F)CC1 | 1% | 3
O=C(O)CC12CC3CC(C1)CC(c1ccccc1)(C3)C2 | -2% | -6
COC(=O)c1ccccc1NC(=O)c1c(Cl)ccc(Cl)c1OC | -6% | -6
O=C(Nc1ccccc1)N(Cc1cccs1)C1CCCC1 | 8% | -3
O=C(c1cc(Br)ccc1Cl)N1CCC2(CC1)OCCO2 | 25% | 20
COc1cccc(N2CC(C(=O)NNC(=O)c3ccc(Cl)cc3)CC2=O)c1 (centres undefined) | 9% | -3
CN1C(=O)C(CC(=O)N2CCN(C(c3ccccc3)c3ccccc3)CC2)N(C)C1=O (centres undefined) | -7% | -10
COc1ccc2nc(NC(=O)c3ncn[nH]3)sc2c1 | -3% | 0
CC(C)(C)C(=O)CSc1nnc(SCc2cccc3ccccc23)s1 | -4% | 1
FC(F)(F)c1ccccc1NC(=S)Nc1ccc(Br)cn1 | -11% | 3
COC(=O)Cc1cc(=O)n(-c2nc3ccccc3s2)[nH]1 | 17% | 10
O=Cc1cn(CC(=O)NCc2cccs2)c2ccc(Br)cc12 | 6% | 38

Rewritten as labelled records: entries from further up.
O=C(NCc1ccco1)c1sc2cccc(F)c2c1Cl
  V. cholerae motility: 10%; V. cholerae motility viability: 19

c1ccc(-c2nc(N3CCCCC3)cc(-n3cccn3)n2)cc1
  V. cholerae motility: -15%; V. cholerae motility viability: -8

Cn1c(CSc2ccccc2)nc2ccccc21
  V. cholerae motility: 18%; V. cholerae motility viability: 3

Carrying on.
SMILES | V. cholerae motility | V. cholerae motility viability
COc1ccc(CCNC(=S)Nc2cnn(Cc3ccc(Br)cc3)c2)cc1OC | -2% | -5
Cn1ccc(C(=O)N/N=C(\C=C\c2ccccc2)c2ccccc2)n1 | 10% | 3
O=C(O)C1C2C=CC(C3CC23)C1C(=O)N1CCc2ccccc21 (centres undefined) | 3% | -4
O=C(c1ccco1)N1CCN(C(=O)C2c3ccccc3Oc3ccccc32)CC1 | -1% | -1
O=C(c1ccc(F)cc1F)N1CCN(c2ncccn2)CC1 | 15% | 23
Nc1nc(CSc2nnc(-c3ccccc3)n2Cc2ccccc2)nc(Nc2ccccc2)n1 | 6% | 7
O=C1CCCC2=C1C(c1cc(Br)ccc1OCc1ccccc1F)C1=C(CCCC1=O)N2 | -4% | -1
COc1ccc2c(c1)c(C(=O)O)c(C)n2-c1ccc(Cl)cc1 | -14% | -6
COc1ccc(Oc2nnc(C)c3ccccc23)cc1 | 14% | 0
N#Cc1ccc(-c2ccc(OCC(=O)Nc3ccc(Cl)cc3Cl)cc2)cc1 | -4% | -5
Cc1nc2oc(C(=O)c3ccccc3)c(N)c2c2c1COC(C)(C)C2 | -1% | 0
COc1ccc2cc(Br)ccc2c1CC(=O)Nc1nccs1 | -11% | -3
COc1ccc(C(=O)NCCSCc2cccs2)cc1OC | 5% | 1
CN(C)CCCNC(=O)C1CCNCC1 | 4% | -10
Cc1cc(C)nc(NC(=S)NCc2ccco2)c1 | 3% | -2
COc1cc2nc(N3CCNCC3)nc(N)c2cc1OC | 16% | 30
O=C(O)c1ccccc1SCc1ccc2c(c1)OCO2 | -9% | -5
COc1cc(OC)c(NC(=O)c2cc(C)on2)cc1Cl | 22% | 11
O=S(=O)(O)c1cccc(NNc2ccc(Nc3ccccc3)cc2)c1 | 1% | -2
Nc1cc(N)c2cc(-c3ccccc3)oc2c1 | 11% | 25
CC(C)(C)OC(=O)CS(=O)c1ccc(S(=O)(=O)C(F)(F)F)cc1[N+](=O)[O-] (centres undefined) | 67% | 52
COc1cc(/C=c2\sc3nc4ccccc4n3c2=O)ccc1OCc1cc2c(cc1Cl)OCO2 | -4% | -4
CN(C)Cc1c(O)ccc2occ(C(O)c3ccccc3)c12 (centres undefined) | 20% | 0
S=C(Nc1ccccc1)N1CCCN1c1ccccc1 | 3% | 6
Cc1cc(Cl)ccc1OCC(=O)N(Cc1nc(-c2ccc(Cl)cc2)no1)C(C)C | 6% | 26
COCC(=O)Nc1nc(-c2cccc([N+](=O)[O-])c2)cs1 | -5% | -9
Cc1ccc(-c2nn(C)c(=O)c3ccccc23)cc1CNC(=O)CSc1nc2ccccc2s1 | -3% | -1
Cc1cc2nc(Sc3c([N+](=O)[O-])nc(C)n3Cc3ccccc3)[nH]c2cc1C | 14% | 3
O=C(COc1ccc(Br)cc1Cl)Nc1cccc(Cn2cccn2)c1 | 8% | -1

Molecules shown so far containing a tert-butyl group:
SMILES | V. cholerae motility | V. cholerae motility viability
CC(C)(C)C(=O)CSc1nnc(SCc2cccc3ccccc23)s1 | -4% | 1
CC(C)(C)OC(=O)CS(=O)c1ccc(S(=O)(=O)C(F)(F)F)cc1[N+](=O)[O-] (centres undefined) | 67% | 52

This is a subset; the hit share may differ from the screen's.
